# Screens deposited in PubChem BioAssay by National Center for Advancing Translational Sciences (NCATS).
# Cruzain inh Det – qHTS Assay for Promiscuous and Specific Inhibitors of Cruzain (with detergent); purified cruzain, Z-FR-AMC fluorescence, 0.01% Triton; Potency, µM, for inactives: max response, negative = inhibition, usual class: inhibitors; 200,000 compounds, 0.43% hits; AID 1478, 2009;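 also: plate controls were neutral wells for no effect and buffer without enzyme for full effect; nearly all actives have a fitted effect of over 40% in size; top concentration of the series not given in the record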
# Target sequence (P25779 123-467 limits assumed): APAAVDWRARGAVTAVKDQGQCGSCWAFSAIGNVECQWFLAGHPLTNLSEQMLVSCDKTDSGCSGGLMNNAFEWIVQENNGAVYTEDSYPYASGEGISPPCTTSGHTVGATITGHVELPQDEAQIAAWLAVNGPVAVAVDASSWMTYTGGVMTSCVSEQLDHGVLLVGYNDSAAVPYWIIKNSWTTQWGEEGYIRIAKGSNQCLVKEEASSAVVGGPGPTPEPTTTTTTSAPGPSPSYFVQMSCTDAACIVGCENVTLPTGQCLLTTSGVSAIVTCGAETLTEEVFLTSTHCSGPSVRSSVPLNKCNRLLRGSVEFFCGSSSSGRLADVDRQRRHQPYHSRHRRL
#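 Z-FR-AMC hydrolysis (2 uM substrate) by cruzain (1.5 nM) monitored kinetically at ex 360/em 450 nm after 15 min room-temperature compound exposure; 0.01% Triton X-100, pH 5.5, 5 mM DTT.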
# Cruzain noTriton – qHTS Assay for Promiscuous and Specific Inhibitors of Cruzain (without detergent) | 200,000 compounds, 2.3% hits | Cruzipain (Trypanosoma cruzi), P25779 | purified cruzain, Z-FR-AMC fluorescence, no detergent | Potency, µM, for the others: max response, negative = inhibition, hits mostly inhibitors;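 also: plate controls were enzyme without inhibitor for no effect and buffer without enzyme for full effect; nearly all actives have a fitted effect of over 40% in size; top concentration of the series not given in the record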
#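 Detergent-free condition (0.00005% Triton X-100) in acetate buffer pH 5.5 with DTT. 1.5 nM enzyme and compound were pre-mixed 15 min, then 2 uM Z-FR-AMC substrate added; reaction progress from fluorescence change between first and third reads (60 s).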
# * = called active by the depositor; u = inconclusive. Calls follow the shape of the dose curve; as a rule, active = well fitted curve in the direction sought with a large enough effect; inconclusive = small, poorly fitted or top-dose-only effect, or another doubt; inactive = no such curve, though single readings can be large; an effect the other way counts as inactive or inconclusive. Potency is read from the fitted curve at half-maximal effect. A portion of the library; count on the stated rates, not on these rows.
SMILES,Cruzain inh Det,Cruzain noTriton
NC1=N[C@H](O)[C@H]2C3O[C@]4(O)O[C@H](C(O)[C@@]2(N1)[C@@H]4O)C3(O)CO (stereo not given in full),1.4%,-7%
ClCC(Cl)CCl,-0.9%,3%
CCCn1c(C)nc2c(NC3CCCCC3)nc(C)nc21,-1.2%,-2%
Cc1ccc2oc(=O)c3c4cc(O)c(O)cc4oc3c2c1,-12%,2%
Cc1ccc(C2CC(=O)Oc3cc(C)c(Cl)cc32)cc1 (stereo not given),-2.2%,0%
CC(C)[C@@H](N)C(=O)O,3.5%,0%
Cc1ccccc1Br,1.2%,-7%
COC(=O)c1ccc(C(/C=C/[C@@H](C)C(=O)N(C)Cc2ccccc2)NC(=O)OCc2ccccc2)cc1 (stereo not given in full),-2.5%,10%
C[C@H]1C2=C3C(CC[C@H]4C(OCc5ccc(F)cc5C(F)(F)F)OC[C@](C)([C@@H]34)N(C(=O)OC(C)(C)C)C2)C(CO)C1CO (stereo not given in full),-5.7%,u
CCC[C@@H]1C[C@@]1(CCC)C(NS(=O)(=O)c1cccc2cccnc12)c1ccc(Cl)cc1 (stereo not given in full),0.5%,-9%
Cc1nc(Nc2ccccc2)c2nc(-c3ccccc3)n(CCN3CCOCC3)c2n1,-7.8%,u
C=C(C)C#N,1.0%,-4%
Cc1ccnc(N)c1,-0.5%,1%
CC(=O)O[C@H]1C[C@@]2(C)[C@H](C[C@@H](O)[C@H]3[C@@]4(C)CC[C@@H](O)[C@@H](C)[C@H]4CC[C@@]32C)C1=C(CCC=C(C)C)C(=O)O,-7.1%,u
CCC[C@@H]1C[C@@]1(CCC)C(NC(=O)c1cccs1)c1ccc(Cl)cc1 (stereo not given in full),-2.9%,6%

# Pulled one by one from the entries so far (2):
SMILES,Cruzain inh Det,Cruzain noTriton
C=C(C)C#N,1.0%,-4%
CCC[C@@H]1C[C@@]1(CCC)C(NS(=O)(=O)c1cccc2cccnc12)c1ccc(Cl)cc1 (stereo not given in full),0.5%,-9%

# Structural class: the compounds so far with four or more nitrogen atoms (two)
SMILES,Cruzain inh Det,Cruzain noTriton
CCCn1c(C)nc2c(NC3CCCCC3)nc(C)nc21,-1.2%,-2%
Cc1nc(Nc2ccccc2)c2nc(-c3ccccc3)n(CCN3CCOCC3)c2n1,-7.8%,u

# Next records follow:
SMILES,Cruzain inh Det,Cruzain noTriton
CCCCCCCN[C@H]1CCC[C@@H]1CCCCCCC(=O)O,2.8%,-4%
O=c1cc(-c2ccccc2O)oc2cc(O)cc(O)c12,1.0%,-6%
COC(=O)[C@H]1C[C@H]2CC[C@H](O)C[C@H]2N1Cc1c(F)cccc1Cl,-5.0%,-4%
O=c1cc(-c2cccc(F)c2)[nH]c2ccc(Cl)cc12,6.4%,-5%
C=C(C)OC(C)=O,-1.0%,-3%
CC(=O)OC(C(=O)c1ccccc1)c1ccccc1 (stereo not given),-8.7%,-11%
CN1C[C@H](C(=O)N[C@]2(C)O[C@@]3(O)[C@@H]4CCCN4C(=O)[C@H](Cc4ccccc4)N3C2=O)C=C2c3cccc4[nH]cc(c34)C[C@H]21,-16%,u
CCCCC1=CC2=C(OC(C)=O)C(=O)C(C)(OC(=O)c3ccco3)C(=O)C2=CO1 (stereo not given),-3.3%,0%
CC/C=C\C/C=C\C/C=C\C/C=C\C=C\C(O)CCCC(=O)O (stereo not given),-1.0%,4%
Cc1cc(C(=O)N[C@@H](c2ccccc2)[C@]2(C)C[C@H]2[C@@H](C)C(=O)Nc2ccc3ccccc3c2)n(C)n1,0.7%,0%
Clc1ccc(C(c2ccc(Cl)cc2)C(Cl)Cl)cc1,1.4%,-23%
COC(=O)c1ccc(C(NC(=O)OCc2ccccc2)/C(C)=C/[C@@H](C)C(=O)N(C)Cc2cccnc2)cc1 (stereo not given in full),-2.2%,u
CC(C)CCCC(C)C1CCC2C3CC=C4CC(O)CCC4(C)C3CCC12C (stereo not given),0.7%,-3%
CC[C@@H]1OC(=O)[C@H](C)[C@H](O[C@@H]2C[C@](C)(OC)[C@H](O)[C@H](C)O2)[C@H](C)[C@H](O[C@@H]2O[C@@H](C)C[C@@H](N(C)C)[C@@H]2O)[C@](C)(O)C[C@H](C)C(=O)[C@H](C)[C@H](O)[C@]1(C)O,2.6%,-4%
CCCCC1=CC2=C(OC(C)=O)C(=O)C(C)(OC(=O)C3CCCC3)C(=O)C2=CO1 (stereo not given),3.6%,-2%
OB(O)c1csc2ccccc12,3.7%,2%
CCC1=C2CC[C@H]3C(=O)N(CC)C(=O)[C@H]3[C@H]2[C@@]2(Cc3ccccc3)C(=NCC3CC3)OC(=O)N2C1=O,-0.4%,6%
COC1C=CO[C@@]2(C)Oc3c(C)c(O)c4c(O)c(c(C=NN5CCN(C)CC5)c(O)c4c3C2=O)NC(=O)/C(C)=C\C=CC(C)C(O)[C@@H](C)C(O)C(C)[C@H](OC(C)=O)C1C (stereo not given in full),-22%,u
CC(Cc1ccccc1)C(=O)NCCc1c[nH]c2ccccc12 (stereo not given),-9.9%,-6%
COC(=O)c1ccc(C(NC(=O)OCc2ccccc2)/C(=C/[C@@H](C)C(=O)NCc2nc3ccccc3n2C)c2cccnc2)cc1 (stereo not given in full),-2.4%,u
CCCCC(CC)C/C=C1\CC(C(=O)OCC)Oc2ccccc21 (stereo not given) (tested in a mixture with another compound),-1.2%,-4%
CC(=O)N1C2(C=CC1(C)C(=O)NCc1cc(F)cc(C(F)(F)F)c1)CCCCC2 (stereo not given),-5.4%,-3%
ClC(Cl)C(Cl)Cl,4.6%,-2%
FC(F)(F)c1ccccc1Cl,4.5%,-2%
ClC(Cl)Br,1.0%,-6%
CNC(=O)C1(C)C=CC2(CCCCC2)N1C(C)=O (stereo not given),4.5%,-8%
CCN(CC)c1cccc(O)c1,1.4%,-1%
CO[C@@H]1C[C@H](O[C@H]2[C@@H](C)[C@H](O[C@@H]3O[C@@H](C)C[C@@H](N(C)C)[C@@H]3OC(C)=O)[C@H](C)C[C@]3(CO3)C(=O)[C@H](C)[C@H](OC(C)=O)[C@H](C)[C@H](C)OC(=O)[C@@H]2C)O[C@H](C)[C@@H]1OC(C)=O,0.0%,4%
CCCCC/C=C\C\C=C/C=C/C=C/[C@@H](SCC(N)C(=O)NCC(=O)O)[C@@H](O)CCCC(=O)O (stereo not given in full),4.4%,1%
CCC/C=C(\CCC)C(NS(=O)(=O)c1ccc(C(F)(F)F)cc1)c1ccc(-c2ccccc2)cc1 (stereo not given),-2.8%,-1%

# 4 entries from above, set out differently:
smiles: C=C(C)C#N
  Cruzain inh Det = 1.0%
  Cruzain noTriton = -4%

smiles: Cc1ccnc(N)c1
  Cruzain inh Det = -0.5%
  Cruzain noTriton = 1%

smiles: CC(=O)O[C@H]1C[C@@]2(C)[C@H](C[C@@H](O)[C@H]3[C@@]4(C)CC[C@@H](O)[C@@H](C)[C@H]4CC[C@@]32C)C1=C(CCC=C(C)C)C(=O)O
  Cruzain inh Det = -7.1%
  Cruzain noTriton = u

smiles: CCC[C@@H]1C[C@@]1(CCC)C(NC(=O)c1cccs1)c1ccc(Cl)cc1 (stereo not given in full)
  Cruzain inh Det = -2.9%
  Cruzain noTriton = 6%

# (next part)
SMILES,Cruzain inh Det,Cruzain noTriton
COC(=O)C1(Cc2ccccc2)C=C2C(=C(C(C)C)C(=O)C2C)CN1 (stereo not given),6.4%,0%
COC(=O)C1(C)C=C2C(=C(C)C(=O)C2C)CN1 (stereo not given),-5.2%,-7%
CCC(CCC(C)C1CCC2C3CC=C4CC(O)CC[C@@]4(C)C3CC[C@@]12C)C(C)C (stereo not given in full),-3.4%,5%
CCN1C[C@]2(COC)CC[C@H](O)[C@@]34[C@@H]5C[C@H]6[C@@H](OC)[C@H]5[C@](O)(C[C@@H]6OC)[C@@](O)([C@@H](OC)[C@H]23)[C@@H]14,-0.1%,-1%
CC(=O)N1CC2(CC2)CC1c1ccccc1 (stereo not given),6.4%,-9%
C=CC1CC=CCC1 (stereo not given),2.2%,-1%
CCCn1c(-c2ccc(F)cc2)nc2c(NCCCCN(CC)CC)nc(C)nc21,-3.6%,-1%
C[C@@]12CCC(=O)C[C@@H]1CC(=O)[C@H]1[C@H]3CCC[C@]3(C)C(=O)C[C@@H]12 (tested in a mixture with another compound),-0.8%,0%
CCCCNc1nc(C)nc2c1nc(-c1ccccc1)n2CC1CCN(C)CC1,-11%,-2%
CN(C)CCCCl,2.5%,-6%
C=C1[C@@H]2C[C@@]3([C@H]1O)[C@H]1C[C@@H]4[C@@]5(C)CC[C@H](O)[C@]4([C@H]1N(CC)C5)[C@H]3C[C@H]2O,3.8%,-7%
CCN1C[C@@]2(COC)CC[C@H](O)[C@@]34[C@@H]2C[C@@H]([C@@H]13)[C@]1(O)C[C@@H](OC)C2C[C@H]4[C@H]1[C@H]2OC(C)=O,1.8%,-9%
CCCCNc1nc(C)nc2c1nc(-c1ccccc1)n2CCCN1CCCCC1C (stereo not given),-1.1%,-6%
COc1ccc2c(c1)O[C@@H](c1cccc(C(F)(F)F)c1)[C@H](OC(=O)N[C@H](C)C1CCCCC1)C2=O,-1.4%,-1%
O=C(Cc1ccc(Cl)cc1)c1c(O)cc(O)cc1O,-7.5%,-22%
CCCCC/C=C\C/C=C\C/C=C\CCCCCCC(=O)NC(C)C(=O)O (stereo not given),-4.8%,2%
CCCCC1=CC2=C(c3ccco3)C(=O)C(C)(OC(=O)c3ccc(Cl)nc3)C(=O)C2=CO1 (stereo not given),-8.7%,1%
CC[C@@]1([C@@H]2O[C@@H]([C@H]3O[C@@](O)(CO)[C@H](C)C[C@@H]3C)C[C@@H]2C)CC[C@H]([C@]2(C)CC[C@]3(C[C@H](O)[C@@H](C)[C@@H]([C@@H](C)[C@@H](OC)C(C)C(=O)O)O3)O2)O1 (stereo not given in full),0.0%,-2%
C=CC(=O)OC,1.0%,-2%
CC(=O)OCC(=O)[C@@]1(O)CCC2C3C[C@H](C)C4=CC(=O)C=CC4(C)C3C(O)CC21C (stereo not given in full),-0.6%,3%
CCOC(=O)C1C(C(=O)OC)=C(c2ccc(F)cc2)c2ccc(OC)cc2N1S(=O)(=O)C(F)(F)F (stereo not given),-1.8%,u
CC(C1CCCC(=O)C1)[N+](=O)[O-] (stereo not given),2.4%,-5%
O=C1CC(c2ccc3c(c2)OCO3)c2cc(O)ccc2O1 (stereo not given),0.1%,-11%
NC(=O)/N=N/C(N)=O,2.7%,-5%
COc1ccc(C=O)cc1OC,4.8%,-2%
Cc1nc(NCCO)c2nc(-c3ccccc3)n(CCN(C)C)c2n1,-5.4%,-6%
CC(C)C[C@@H](CC(=O)N[C@@H](CCC(=O)O)CC(=O)O)NC(=O)[C@@H]1CCCC[C@H]1NC(=O)C[C@@H](NC(=O)C[C@H](Cc1c[nH]c2ccccc12)NC(=O)[C@@H]1CCCC[C@H]1N)C(C)C,2.0%,u
CO/N=C(\C(=O)N[C@@H]1C(=O)N2C(C(=O)[O-])=C(C[N+]3(C)CCCC3)CS[C@@H]12)c1csc(N)n1,-17%,-16%
NC(=O)NC(N)=O,7.3%,1%
C[C@@]1(C(NC(=O)Cc2ccccc2)c2ccc(-c3ccccc3)cc2)C[C@H]1C1CCCCC1 (stereo not given in full),3.9%,3%
O=Cc1ccc2c(c1)OCO2,0.3%,1%
CCOCCOC(C)=O,-3.1%,-12%
O=C(CCN1CCCCC1)Nc1ccc2c(c1)C(=O)c1ccc(NC(=O)CCN3CCCCC3)cc1C2=O,0.3%,-9%
c1c[nH]cn1,2.9%,5%
O=C1OC(=O)c2c(Cl)c(Cl)c(Cl)c(Cl)c21,4.5%,3%
CO[C@H]1C([C@@]2(C)O[C@@H]2CC=C(C)C)[C@]2(CC[C@H]1OC(=O)/C=C/C=C/C=C/C=C/C(=O)O)CO2 (stereo not given in full),-0.2%,u
CCC1=C2CC[C@H]3C(=O)N(CC(=O)OC)C(=O)[C@H]3[C@H]2[C@@]2(Cc3ccccc3)C(=NCCOC)OC(=O)N2C1=O,1.2%,15%

# In a second layout: results already given.
O=c1cc(-c2ccccc2O)oc2cc(O)cc(O)c12
- Cruzain inh Det: 1.0%
- Cruzain noTriton: -6%

CC(=O)O[C@H]1C[C@@]2(C)[C@H](C[C@@H](O)[C@H]3[C@@]4(C)CC[C@@H](O)[C@@H](C)[C@H]4CC[C@@]32C)C1=C(CCC=C(C)C)C(=O)O
- Cruzain inh Det: -7.1%
- Cruzain noTriton: u

CC(Cc1ccccc1)C(=O)NCCc1c[nH]c2ccccc12 (stereo not given)
- Cruzain inh Det: -9.9%
- Cruzain noTriton: -6%
